# Compound activity deposited in PubChem by National Center for Advancing Translational Sciences (NCATS).
# TRPML1 inh: human mucolipin-1 channel inhibition. Q9GZU1. TRPML1-inducible cells, Ca2+ dye fluorescence, FDSS; active compounds read low; inhibition of EC80 agonist-evoked calcium signal. activity change, negative = inhibition, % (concentration not given with the values). 390,000 compounds, 0.02% hits. AID 624415; in the data active means activity change below about -50%; inconclusive means about -30% to -50%; inactive means above about -30%;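 note: stimulus is agonist 54-4 at its EC80 concentration; % is set by controls: 0 for no effect and ±100 for the full control effect; the text of the record puts the active cut at -80%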
# Target sequence (Q9GZU1 whole entry, looked up): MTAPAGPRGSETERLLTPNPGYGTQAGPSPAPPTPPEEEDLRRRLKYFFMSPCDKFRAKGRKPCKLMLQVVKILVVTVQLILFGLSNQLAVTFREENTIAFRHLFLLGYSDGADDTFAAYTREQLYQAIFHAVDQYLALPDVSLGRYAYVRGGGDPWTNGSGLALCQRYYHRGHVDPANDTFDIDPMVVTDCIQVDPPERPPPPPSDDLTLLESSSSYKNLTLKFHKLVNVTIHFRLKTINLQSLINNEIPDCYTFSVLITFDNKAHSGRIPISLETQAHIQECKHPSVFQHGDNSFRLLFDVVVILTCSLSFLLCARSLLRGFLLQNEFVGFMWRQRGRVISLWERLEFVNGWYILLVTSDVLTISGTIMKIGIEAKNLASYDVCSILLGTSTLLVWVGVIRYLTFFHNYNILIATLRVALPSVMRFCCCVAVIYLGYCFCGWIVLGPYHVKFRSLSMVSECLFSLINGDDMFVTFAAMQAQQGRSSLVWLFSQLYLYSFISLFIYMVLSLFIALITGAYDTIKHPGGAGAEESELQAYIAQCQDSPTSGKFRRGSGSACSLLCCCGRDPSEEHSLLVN
#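 Calcium fluorescence in TRPML1-DL cells induced overnight with Tet: a 110 s read after compound pin addition, then a 110 s antagonist read after challenge with 54-4 at 4 uM final (EC80).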
# ClpP mod: qHTS Assay for Activators of ClpP. purified B. subtilis ClpP, FRET peptide cleavage, 20 min. Potency, µM (doses to about 57.5 µM), without a hit: at the highest dose activity change, negative = active. 340,000 compounds, 1.9% hits. AID 651965, 2013; active = well fitted falling curve with a large enough effect; inconclusive = small, poorly fitted or top-dose-only effect; inactive = no such curve, though single readings can be large or run the other way; note: potency is the fitted concentration of half-maximal effect; the source files actives as falling curves though it sought activators and does not explain the sign; nearly all actives have a fitted effect of over 65% in size; many hits overshoot -100%
# Target sequence (P80244 whole entry, looked up): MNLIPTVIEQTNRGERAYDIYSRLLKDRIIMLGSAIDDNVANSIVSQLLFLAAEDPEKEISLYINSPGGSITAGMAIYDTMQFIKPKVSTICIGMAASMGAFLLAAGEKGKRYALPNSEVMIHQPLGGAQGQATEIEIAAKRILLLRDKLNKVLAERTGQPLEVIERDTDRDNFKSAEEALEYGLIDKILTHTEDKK
#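 FRET quenching reversal measured ClpP activation: 10 microg/mL B. subtilis ClpP at pH 8 with the FRET-FV decapeptide, read at 430 nm after 320 nm excitation. The 20-min minus 0-min signal was scaled between DMSO/no-enzyme wells and ADEP (5.8 microM final).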
# Numbers without * were called inactive; ? = inconclusive. A portion of the library; rates above refer to the full screens.
# Preview:
SMILES,TRPML1 inh,ClpP mod
Cc1cccc(C)c1NC(=O)C(=O)NCC(c1ccc2c(c1)OCO2)N1CCOCC1 (stereo not drawn),-23,-0.5%
Cc1cccc(NC(=O)Nc2nnc(N3CCCC3)s2)c1,21,0.0%
O=C(NC1CCCCC1)c1ccc(Cn2c(SCc3ccc(F)cc3)nc3cccnc32)cc1,-1,-18%
CCOCN(C(=O)Cn1c(CC(C)C)nc2ccccc21)c1c(C)cccc1CC,10,2.6%
CSc1nnc(NC(=O)Cc2coc3cc(C)ccc23)s1,18,-0.7%
CCN1c2ccccc2-c2nc(SCC(=O)Nc3cccc(C)c3C)ncc2S1(=O)=O,31,6.2%
CC(=O)c1c(C)oc2ccc(N(C(=O)c3ccncc3)S(=O)(=O)c3ccc(C)cc3C)cc12,25,1.0%

# Results, from the first entry:
SMILES,TRPML1 inh,ClpP mod
Cc1cccc(C)c1NC(=O)C(=O)NCC(c1ccc2c(c1)OCO2)N1CCOCC1 (stereo not drawn),-23,-0.5%
Cc1cccc(NC(=O)Nc2nnc(N3CCCC3)s2)c1,21,0.0%
O=C(NC1CCCCC1)c1ccc(Cn2c(SCc3ccc(F)cc3)nc3cccnc32)cc1,-1,-18%
CCOCN(C(=O)Cn1c(CC(C)C)nc2ccccc21)c1c(C)cccc1CC,10,2.6%
CSc1nnc(NC(=O)Cc2coc3cc(C)ccc23)s1,18,-0.7%
CCN1c2ccccc2-c2nc(SCC(=O)Nc3cccc(C)c3C)ncc2S1(=O)=O,31,6.2%
CC(=O)c1c(C)oc2ccc(N(C(=O)c3ccncc3)S(=O)(=O)c3ccc(C)cc3C)cc12,25,1.0%
CCc1ccc(NC(=O)CSc2nc3ccccc3nc2Cc2ccc(C)cc2)cc1,0,-0.6%
Cn1c(=O)c2cc(C(=O)Nc3cccc(C#N)c3)sc2c2ccccc21,-8,1.4%
O=C(CC[C@H]1O[C@@H](n2ccc(=O)[nH]c2=O)[C@H](O)[C@@H]1O)NCc1ccc2c(c1)OCO2,-14,-2.4%
COc1ccccc1Cc1c(-c2ccc(F)cc2)nc2ccc(Cl)cn12,16,-22%
CC(C)OCCCn1c(SCC(=O)Nc2ccc(F)cc2)nc2c(sc3ccccc32)c1=O,0,-5.3%
O=C(NCCc1ccc(Cl)cc1)c1ccc2c(c1)N(Cc1ccc(F)cc1)C(=O)CS2,21,-6.8%
COc1ccc(Br)cc1CNC(=O)c1ccc(-n2c(C)cc3c2CCC(C)C3)cc1 (stereo not drawn),3,-8.5%
Cn1c(NCCN)nc2c1c(=O)n(Cc1ccccc1)c(=O)n2C,0,-2.0%
CCOc1ccc(-n2cc(-c3ccccc3)c3c(NC4CCCCC4)ncnc32)cc1,-19,?
Cc1ccc(-n2nc3c(=O)n(CC(=O)NCC(C)c4ccccc4)nc(C)c3c2C)cc1 (stereo not drawn),21,-5.0%
COc1ccc(CNC(=O)c2ccc3nc(C(C)C)oc3c2)cc1OC,7,-18%
Cc1ccc(Sc2ccc(N3CCCC(C(=O)Nc4ccc(F)cc4F)C3)nn2)cc1 (stereo not drawn),18,1.2%
Cc1ccc2onc(CC(=O)N3CCN(c4cccc(C)c4C)CC3)c2c1,4,-1.2%

# Part of the list above in another layout.
COc1ccc(CNC(=O)c2ccc3nc(C(C)C)oc3c2)cc1OC
  TRPML1 inh: 7	ClpP mod: -18%
Cc1ccc(Sc2ccc(N3CCCC(C(=O)Nc4ccc(F)cc4F)C3)nn2)cc1 (stereo not drawn)
  TRPML1 inh: 18	ClpP mod: 1.2%

# Another view of some results above.
# Screens in order – TRPML1 inh	ClpP mod
- CC(C)OCCCn1c(SCC(=O)Nc2ccc(F)cc2)nc2c(sc3ccccc32)c1=O
    0	-5.3%
- O=C(NCCc1ccc(Cl)cc1)c1ccc2c(c1)N(Cc1ccc(F)cc1)C(=O)CS2
    21	-6.8%

# Other entries.
SMILES,TRPML1 inh,ClpP mod
CC(C)NC(=O)C1Cc2c(-c3ccccc3Oc3ccccc3)ccnc2O1 (stereo not drawn),28,-5.6%
CCOC(=O)c1ccccc1NC(=O)CN1CCCN(Cc2cccc(Cl)c2)S1(=O)=O,49,?
Cc1cccc(N2CCN(c3ncnc4onc(C)c34)CC2C)c1 (stereo not drawn),23,1.6%
CCOc1ccc(NC(=O)c2ccc(-c3nc(COc4ccccc4)c(C)o3)cc2)cc1,7,0.9%
Cc1ccccc1-c1nc(NC(C)C)nc2cc(-c3ccccc3)sc12,16,?
COc1ccc(C(O)c2ncc(-c3ccccc3)[nH]2)cc1F (stereo not drawn),37,0.3%
COC(=O)CC1Oc2ccc(Cl)cc2-n2cc(-c3ccccc3)nc21 (stereo not drawn),-4,15%
Cc1cccc2sc(N(CCN(C)C)C(=O)c3ccc4c(c3)OCCO4)nc12,7,-4.6%
CC(O)(c1ccc(F)c(F)c1)c1nc(-c2ccoc2)cs1 (stereo not drawn),11,-0.5%
CCOC(=O)c1c(NC(=O)CCCOc2ccc(C(C)(C)C)cc2)sc2c1CCCC2,-8,-0.8%
Cc1cc(C)n2c(Nc3c(C)cccc3C)c(-c3ccsc3)nc2n1,15,-0.1%
CCOc1cccc(CC(=O)NCc2ccc3c(c2)CCN3C(=O)c2ccc(F)cc2)c1OCC,12,-2.0%
Cc1ccc(C)c(NC(=O)CN(C)S(=O)(=O)c2cccc3nsnc23)c1,21,-4.8%
Cc1ccc(CNC(=O)CCN2C(=O)COc3ccc(C)cc32)cc1,-2,0.4%
CC(C)NC(=O)C1CCC(Cn2c(=O)c3sccc3n(CC(=O)N3CCCC3)c2=O)CC1 (stereo not drawn),0,-1.6%
Cc1ccc2c(c1)c(=O)c1ccccc1n2CCCC(=O)Nc1ccc(Cl)c(Cl)c1,-4,3.8%
CN(C)S(=O)(=O)c1ccc(C(=O)NC2CC(=O)N(c3ccc4c(c3)OCCO4)C2)cc1 (stereo not drawn),-1,-1.3%
Cc1ccc(Sc2c(C(=O)NCc3cccc(F)c3)[nH]c3ccccc23)cc1,-3,-23%
CN(CCO)C(=O)c1nc[nH]c1C(=O)N(C)Cc1ccccc1,?,2.8%
Cc1c2cnn(CC(=O)N3CCN(c4ccccc4)CC3)c(=O)c2c(C)n1Cc1ccc(F)cc1,-7,-2.8%
CCc1nc2c(OCc3ccccc3OC)cccn2c1N(C)C(=O)C(C)C,-3,-0.7%
Cc1ccc(CCNC(=O)c2cc3ccccn3n2)cc1,-12,-4.7%
CCOc1ccc(C(=O)c2cn(CC(=O)Nc3ccc(C)c(Cl)c3)c3ccc(OCC)cc3c2=O)cc1,0,2.3%
COc1ccc(N2CC(NC(=O)c3ccco3)CC2=O)cc1 (stereo not drawn),4,-1.3%
COc1cccc(N2CCN(C(=O)c3cnn(-c4ccc(C)cc4C)c3C3CCN(C(=O)OC(C)(C)C)CC3)CC2)c1,-17,0.2%
COC(=O)c1ccc(NS(=O)(=O)c2ccc(-n3cccn3)cc2)cc1,-7,-0.1%
N#Cc1cc(NC(=O)c2ccc(Cl)cc2)ccc1Sc1ccccc1,-16,-4.1%
O=C(CSc1cn(CC(=O)N2CCCCC2)c2ccccc12)NCc1ccccc1,-5,-1.8%
COc1cccc(-c2nc(SCC(=O)Nc3ccc4c(c3)OCO4)c(-c3ccccc3)[nH]2)c1,0,?
CC(=O)Nc1cccc(-c2ccnc3c2CC(C(=O)Nc2cccc(N(C)C)c2)O3)c1 (stereo not drawn),36,-8.9%
O=C(CC1C(=O)N(c2ccccc2)C(=O)N1CCc1cccs1)Nc1ccc(F)cc1 (stereo not drawn),15,-0.3%
COC(=O)c1ccccc1NC(=O)Cn1nc(C(F)(F)F)c2c1CCCC2,?,-23%
CC(C)NC(=O)c1sc2ncccc2c1-n1cccc1,?,-1.4%
Cc1cccc(CCNC(=O)C2CCN(c3nc4ccccc4nc3C(F)(F)F)CC2)c1,-9,-2.5%
CC(C)(C)c1ccc(OCCOCCn2c(-c3ccc(Cl)cc3)nc3ccccc3c2=O)cc1,-5,-3.6%
CC1CCN(S(=O)(=O)c2ccc3c(c2)N(CC(=O)N2CCN(c4ccc(Cl)cc4)CC2)C(=O)CO3)CC1,24,-0.6%
CCOc1ccc(-c2cc(C(=O)N3CCN(c4cccc(C)c4)C(C)C3)c3ccccc3n2)cc1 (stereo not drawn),21,-14%
Cc1ccc(OCCCCn2nnc3sc4c(c3c2=O)CCC(C)C4)cc1 (stereo not drawn),-17,-2.4%
Cc1ccc(N2CC(NC(=O)c3ccc(S(=O)(=O)N(C)C)cc3)CC2=O)cc1C (stereo not drawn),-13,0.5%
CCCN1C(=O)c2[nH]nc(-c3ccccc3)c2C1c1cccc(O)c1 (stereo not drawn),10,2.0%
CCOc1cc2[nH]c(=O)n(CCCC(=O)N3CCN(c4ccc(OC)cc4)CC3)c(=O)c2cc1OCC,-8,-9.2%
O=C(NCC(c1cccnc1)N1CCN(c2ccccc2F)CC1)c1ccc(F)cc1 (stereo not drawn),9,-0.2%
c1cc(-c2ccc3[nH]ccc3c2)n2ccnc2c1,12,4.0%
COc1ccc(-c2nc(CSCC(=O)NCCc3ccc(C)cc3)c(C)o2)cc1OC,13,32µM*
COC(=O)c1ccc(-n2nnc(-c3nsc(NC(=O)c4ccc(Cl)cc4)n3)c2C)cc1,10,-3.1%
CCOc1cccc(NC(=O)C2CC(=O)N(C)C(=Nc3ccc(OC)cc3)S2)c1 (stereo not drawn),1,-1.0%
Cc1nn(CC(=O)N2CCN(c3ccccc3)CC2)c(=O)c2cc3sccc3n12,22,-0.6%
Cc1ccc(CNC(=O)c2cnc(N3CCCC3)nc2C)cc1,15,?
N#Cc1c(C(F)(F)F)cc(-c2cccs2)nc1SCC(=O)Nc1cccc(C(F)(F)F)c1,-13,4.6%
Cc1ccc(-c2cc(-c3coc4ccccc4c3=O)c3c(n2)-c2ccccc2OC3)cc1,11,3.4%
Cc1cc(C(F)F)n2nc(C(=O)Nc3cc(Cl)ccc3C)nc2n1,-5,-3.7%
COc1ccc(C2CC(=O)c3cc(-c4nc(-c5cccc([N+](=O)[O-])c5)cs4)c(=O)n(-c4cccc(C)c4)c3C2)cc1 (stereo not drawn),1,0.0%
CCOc1ccc(C(=O)Nc2nnc(SCc3cc(=O)n4ccccc4n3)s2)cc1,21,?
CCC(=O)N1CCc2cc(Br)cc(S(=O)(=O)N3CCCC(C(=O)NCc4ccccc4)C3)c21 (stereo not drawn),61,-1.1%
CCOC(=O)C1CCCN(S(=O)(=O)c2ccc3c(c2)CCCN3C(C)=O)C1 (stereo not drawn),-7,-0.2%
Fc1ccc(-c2nc3ccc(Cl)cn3c2Cc2cccc(Cl)c2)cc1,4,?
Cc1nn(-c2ccc(F)cc2)c(-n2cccc2)c1C(=O)NCCCN1CCN(c2cccc(Cl)c2)CC1,5,-4.3%
CCS(=O)(=O)N1CCc2cc(C(=O)Nc3cccc(Cl)c3C)ccc21,33,0.8%
Cc1cc(NS(=O)(=O)c2cn(C)c(C)n2)ccc1Br,2,3.4%
CCOC(=O)c1cc2c(=O)n3ccccc3nc2n(CCCOC)c1=NC(=O)c1c(-c2ccccc2Cl)noc1C,-21,3.2%

# Whole records, looked up by structure. Screens in order: TRPML1 inh | ClpP mod
# `Cc1cc(C)n2c(Nc3c(C)cccc3C)c(-c3ccsc3)nc2n1` is entered as 15 | -0.1%
# `Cc1ccc2c(c1)c(=O)c1ccccc1n2CCCC(=O)Nc1ccc(Cl)c(Cl)c1` is entered as -4 | 3.8%
# `Cc1cccc2sc(N(CCN(C)C)C(=O)c3ccc4c(c3)OCCO4)nc12` is entered as 7 | -4.6%

# (cont.)
SMILES,TRPML1 inh,ClpP mod
Cc1oc(-c2cccc(Cl)c2)nc1CN1CCCC(C(=O)NCc2ccc(F)cc2)C1 (stereo not drawn),0,0.9%
CSc1ccccc1NC(=O)CCS(=O)(=O)c1nc(-c2cccs2)cc(C(F)(F)F)n1,14,-0.1%
Cc1cccc(NS(=O)(=O)c2ccc3c(c2)n(C)c(=O)n3C)c1C,30,1.5%
COc1ccc(CCCc2nnc(SCC(=O)Nc3cc(F)ccc3C)o2)cc1,5,0.2%
CCOc1ccccc1NC(=O)CSc1nc(=O)[nH]c2c1CCCC2,1,-2.4%
